Assay outcomes from PubChem.
YopH PTP inh: YopH tyrosine phosphatase inhibitors, primary screen, biochemical, fluorescence Ex485/Em525; YopH tyrosine phosphatase [Yersinia enterocolitica]; inhibition, %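 (about 10 µM by stock and volumes)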; 140,000 tested, 0.16% active; AID 898, 2007;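 active means inhibition of 50% or more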;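 further: controls were vehicle for no effect and minimum signal wells for full effect; inactives centre near -20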
Mtb growth: M. tuberculosis H37Rv growth inhibitors, H37Rv strain (AID 1626); M. tuberculosis H37Rv growth inhibition; higher % means a stronger effect; inhibition, % at 10 µM, or IC50 in µM where a hit was titrated; 220,000 tested, 0.95% active;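 active means confirmed in a dose series; inconclusive means inhibition above 80% but not taken into the dose series; inactive means below 80% or under 30% at every dose of the series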;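 further: bacteria incubated seven days before Alamar blue readout; 0% = bacteria only wells and 100% = bacteria with antibiotic wells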
RecA intein inh: Mtb RecA intein splicing inhibitors, primary screen, biochemical, fluorescence, HTS; AID 2221, 2009; inhibition, %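 (about 9 µM by stock and volumes)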; cell-free RecA intein splicing; 290,000 tested, 0.75% active; in the data active means inhibition above about 30%; inconclusive means no clear call, values can overlap the other calls;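 further: 0% = vehicle wells and 100% = reference inhibitor control wells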
Target sequence (P9WHJ3 whole entry, looked up): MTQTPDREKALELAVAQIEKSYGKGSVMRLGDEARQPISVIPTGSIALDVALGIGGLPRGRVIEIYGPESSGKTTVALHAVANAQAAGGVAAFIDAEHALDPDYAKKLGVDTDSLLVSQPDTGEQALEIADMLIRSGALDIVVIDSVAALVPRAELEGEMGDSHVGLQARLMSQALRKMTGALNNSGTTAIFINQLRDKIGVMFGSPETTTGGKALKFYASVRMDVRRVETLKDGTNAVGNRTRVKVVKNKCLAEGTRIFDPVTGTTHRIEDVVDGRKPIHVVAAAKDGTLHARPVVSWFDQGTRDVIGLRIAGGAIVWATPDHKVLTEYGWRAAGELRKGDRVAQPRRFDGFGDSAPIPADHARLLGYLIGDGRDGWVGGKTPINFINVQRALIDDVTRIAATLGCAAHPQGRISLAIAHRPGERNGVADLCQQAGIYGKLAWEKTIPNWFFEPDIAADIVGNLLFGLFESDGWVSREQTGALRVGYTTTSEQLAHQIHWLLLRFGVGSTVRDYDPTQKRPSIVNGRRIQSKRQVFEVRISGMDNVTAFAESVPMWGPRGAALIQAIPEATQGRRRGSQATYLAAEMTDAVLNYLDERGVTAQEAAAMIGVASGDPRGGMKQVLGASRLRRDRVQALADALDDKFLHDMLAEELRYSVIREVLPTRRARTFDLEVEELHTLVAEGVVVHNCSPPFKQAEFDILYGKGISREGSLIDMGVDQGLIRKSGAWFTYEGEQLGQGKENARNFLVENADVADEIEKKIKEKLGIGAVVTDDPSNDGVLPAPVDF
Arbovirus anti: antivirals against arbovirus infection, primary screen, cell-based, full library, 10K replicate subset; inhibition, % at 10 µM; 200,000 tested, 0.37% active; arbovirus infection cell-based antiviral screen; AID 1251, 2008;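 active means inhibition from about 30%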;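 further: bluetongue infection of BSR cells; cell survival read as ATP light after 72 h; 0% = infected wells without compound and 100% = uninfected wells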
Mtb bLac sens: beta-lactam sensitization of Mtb H37Rv, H37Rv | M. tuberculosis H37Rv growth with meropenem, percent inhibition; hits of this screen are not shown here | inhibition, % at 25 µM | 330,000 tested, 0.27% active;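 active means about 74% or more and at least 40 points above the plate without the antibiotic, then above 30% in a dose series; inconclusive means first-round hits that could not be retested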;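 further: growth measured after seven days incubation then overnight dye step; 0% = bacteria only wells and 100% = bacteria with antibiotic; twin plates without the antibiotic show which effects depend on it; some results filed as inactive read as strong as hits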
Arbovirus anti repeat: also measured in Arbovirus anti; calls as there; inhibition, %; measured here: 10K subset replicate screen; many hits read low in the repeat;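 first of two repeat runs on a subset; 0% = infected and 100% = uninfected wells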
Starred values were filed as active, the others as inactive; ? = inconclusive; . = not tested or not shown. A portion of the library; count on the stated rates, not on these rows.

SMILES	YopH PTP inh	Mtb growth	RecA intein inh	Arbovirus anti	Mtb bLac sens	others
COc1cccc(C2C(C(=O)Nc3cccnc3)=C(C)Nc3nnnn32)c1OC (configuration not stated)	-45	-4%	3.9	4	8
COc1ccccc1N1CCN(C2CCCN(C(=O)c3cc(C)oc3C)C2)CC1 (configuration not stated)	.	.	9.5	.	-7
O=c1oc(-c2cccc(S(=O)(=O)N3CCOCC3)c2)nc2ccccc12	-4	11%	0.1	13	42
Cc1nc2scc(C)n2c(=O)c1S(=O)(=O)NCC1CCN(Cc2ccc(F)cc2)CC1	.	.	2.9	.	-1
CNC(C)C#Cc1ccc2c(=O)c3ccccc3oc2c1 (configuration not stated)	.	5%	0.8	.	13
O=C(O)c1ccc(C(=O)c2ccc3c(c2)C(=O)N(Cc2ccco2)C3=O)cc1	-20	-1%	-1.0	-2	-5
O=C(NC(=S)Nc1ccc(N2CCOCC2)cc1)c1ccc(Cl)cc1	-18	-1%	-1.5	-10	3
Cc1ccc(-c2c(C(=O)NC(C)C)oc(=O)c3ccccc23)cc1	.	-7%	-1.6	4	8
CC(=O)Oc1ccc(-c2nc3cc(Cl)ccc3c(=O)o2)cc1	.	.	15	.	64
Cc1cc(NC(=O)CCC(=O)N(c2ccccc2)C(C(=O)NC2CCCC2)c2cccs2)no1 (configuration not stated)	-36	0%	-0.1	-21	-4
COc1ccc(N(CC(O)Cn2c(C)nc3ccccc32)S(=O)(=O)c2ccccc2)cc1 (configuration not stated)	-28	1%	-1.6	-3	8
CC1CCN(S(=O)(=O)c2cccc(C(=O)NC3CCCC3)c2)CC1	.	.	-0.5	.	-10
COc1ccc(C(=O)c2cc(C(C)=O)c(Nc3ccccc3)s2)cc1	-36	4%	-3.9	-12	-6
CCC(C)Oc1ccc(C(=O)Nc2ccc(CN3CCOCC3)cc2)cc1 (configuration not stated)	.	.	1.0	.	2
COc1ccc(CNC(=O)c2nnn(CC(=O)Nc3cc(C)cc(C)c3)c2N)cc1	.	.	-0.8	.	6
COc1cccc(N2CC(C(=O)Nc3c(C(N)=O)oc4ccccc34)CC2=O)c1 (configuration not stated)	.	.	0.2	.	-7
Cc1cccc(NC(=O)CCn2nc(C)cc2C)c1	-28	-24%	0.5	-1	1
O=C(COc1ccc(Cl)cc1)OCC(=O)N1CCCCCC1	-28	8%	2.7	5	.
CCCCCCn1c(=O)c(C(=O)Nc2cccc(C)n2)c(O)c2ccccc21	.	.	-6.2	.	-2
O=[N+]([O-])c1ccc(N/N=C/c2ccccc2)c(F)c1	-29	18%	-7.8	-3	7
CCOC(=O)[C@H]1[C@H]2COc3cc(OC)ccc3[C@@H]2N2C(=O)N(c3ccc(Br)cc3)C(=O)[C@@]12C	.	.	5.0	.	-9
Cc1ccc(S(=O)(=O)NCc2ccc3c(c2)OCO3)cc1C	.	.	1.3	.	2
CC(C)OC(=O)c1c(NC(=O)c2ccco2)sc2c1CCCCC2	9	-2%	-0.1	-1	4
CCSc1nc2sc3c(c2c(=O)[nH]1)CCc1ccccc1-3	-27	-2%	10	9	-7
CNc1oc(-c2ccc(C)cc2)nc1P(=O)(c1ccccc1)c1ccccc1	-22	-1%	11	-44	11
CC1/C(=N/O)CC(c2ccco2)NC1c1ccco1 (configuration not stated)	-25	-7%	0.0	3	-1
O=C(Cc1ccc(F)cc1)Nc1nnc(SCC(=O)NC2CCCC2)s1	.	1%	-1.4	-3	-2
O=C(NCCC1=CCCCC1)C1CCC(CNc2c(N3CCCCC3)c(=O)c2=O)CC1 (configuration not stated)	.	1%	-1.3	.	-9
Clc1ccc(N=C2SCCS2)cc1	.	9%	1.9	.	-1
Cc1c(Cl)cccc1NC(=O)CCC(=O)NNC(=O)CCC(=O)O	.	-4%	-1.8	5	-7
CC1=C(C)NC(=S)SC1	-17	-3%	.	-2	3
COC(=O)C1CCN(C(=O)COC(=O)[C@@H]2CC(O)CN2S(=O)(=O)c2ccc3c(c2)OCCO3)CC1 (some centres not stated)	-4	-2%	0.1	5	-1
CN(CC(=O)Nc1cccc(F)c1)C(=O)c1ccc2c(=O)n3c(nc2c1)CCC3	.	.	3.2	.	-8
CC(C)[C@H](NC(=O)c1ccco1)C(=O)NC12CC3CC(CC(C3)C1)C2	.	6%	-0.3	-13	9
COc1ccccc1-c1nnc(SC(C(=O)c2c[nH]c3ccccc23)c2ccccc2)n1C (configuration not stated)	-30	9%	16	-12	86
Cn1c(SCC(N)=O)nnc1-c1ccc(C(C)(C)C)cc1	.	-8%	-28	-1	1
Cc1noc(NS(=O)(=O)c2ccc(NC(=O)c3cc(=O)c4ccccc4o3)cc2)c1C	.	.	0.0	.	1
CCCCCCc1ccc(N2C[C@H](Cc3ccccc3)[C@@H](CC(=O)NCc3ccc(OC)cc3)C2=O)cc1	.	.	-3.3	.	5
CCOCCN1CCN(c2c(CC)c(C)nc3cc(-c4cc(OC)cc(OC)c4)nn23)CC1	1	?	5.7	-3	98
CSc1nc(NS(=O)(=O)c2ccc(F)cc2F)nn1C	.	.	0.9	.	1
COc1ccc(CCC(=O)NCCS(=O)(=O)N2CCN(c3ccccc3)CC2)cc1	.	.	-0.9	.	-16
CN1CCN(C(=S)Nc2ccc(Cl)cc2Cl)CC1	-5	7%	-2.3	-4	-5
CCCc1ccccc1OCCNC(C)=O	-31	-7%	-0.1	-4	5
CCn1c(SCC(=O)N2CCN(c3ccccc3)CC2)nnc1-c1cc2cc(Cl)ccc2o1	-20	8%	-0.8	-7	-3
COc1cc(C(=O)NC(C)c2ccc(S(N)(=O)=O)cc2)ccc1OCC(=O)N1CCOCC1 (configuration not stated)	.	.	0.5	.	1
CCn1c(CC(=O)Nc2ccc(OC)cc2)nnc1SCC(=O)N1CCOCC1	.	.	-1.0	.	-11
O=C(NNC(=O)c1c(F)cccc1F)c1ccccc1OC(F)(F)F	.	0%	-0.3	.	40
Cc1ccc(N2C(=O)C3C4C=CC(CNC(=S)N5CCN(c6ccccc6)CC5)(O4)C3C2=O)cc1 (configuration not stated)	.	-1%	2.2	-5	-2

Quoted at random: 5 entries already listed, in no set order.
SMILES	YopH PTP inh	Mtb growth	RecA intein inh	Arbovirus anti	Mtb bLac sens	others
CCn1c(CC(=O)Nc2ccc(OC)cc2)nnc1SCC(=O)N1CCOCC1	.	.	-1.0	.	-11
COc1ccc(CCC(=O)NCCS(=O)(=O)N2CCN(c3ccccc3)CC2)cc1	.	.	-0.9	.	-16
CCn1c(SCC(=O)N2CCN(c3ccccc3)CC2)nnc1-c1cc2cc(Cl)ccc2o1	-20	8%	-0.8	-7	-3
CCOCCN1CCN(c2c(CC)c(C)nc3cc(-c4cc(OC)cc(OC)c4)nn23)CC1	1	?	5.7	-3	98
CCCCCCc1ccc(N2C[C@H](Cc3ccccc3)[C@@H](CC(=O)NCc3ccc(OC)cc3)C2=O)cc1	.	.	-3.3	.	5

The list continues:
SMILES	YopH PTP inh	Mtb growth	RecA intein inh	Arbovirus anti	Mtb bLac sens	others
CC(=O)N[C@@H](Cc1ccc(OC(F)(F)F)cc1)C(=O)O	.	-4%	0.2	.	-3
O=C(Nc1cccc(S(=O)(=O)NC2=NCCC2)c1)c1c(F)cccc1Cl	.	.	1.4	.	-12
CSC1=NC2C(N1)N(C)C(=O)N2C (configuration not stated)	-10	-2%	-1.0	2	-10
Cc1c(C)c(C)c(S(=O)(=O)n2[nH]c(=O)c(CCO)c2C)c(C)c1C	.	6%	-3.7	4	-5
CC(NC(=S)NCc1ccc(F)cc1)C12CC3CC(CC(C3)C1)C2 (configuration not stated)	.	-4%	0.1	6	8
CC1=C(C#N)C(=O)N(C)C(C)(C)C1	-13	-2%	-5.4	-3	-7
CCC1CCCCN1C(=O)CCC(=O)Nc1nnc(C(F)(F)F)s1 (configuration not stated)	.	.	-2.6	.	-3
Cc1ccc(C(=O)OCC(=O)NCCC2=CCCCC2)cc1N	.	-3%	-1.7	8	1
CO/N=C(/c1nonc1N)N1CCN(c2ccc([N+](=O)[O-])cc2)CC1	2	0%	0.5	-1	-8
COc1cc(-c2nnc(SCC(=O)OC3CCCCC3)o2)cc(OC)c1OC	-17	<0.2µM*	5.4	-1	98
O=C(Cc1cccs1)NNC(=O)c1ccc(F)cc1	0	8%	-2.9	2	-11
COc1cc(/C=C2/C(C)=C(C#N)c3nc(N)c(C#N)c(C)c32)ccc1OCC(=O)O	.	-5%	17	-1	-1
COc1ccc(-c2nc3nc(N)nn3cc2C)cc1F	.	4%	0.2	4	0
O=C(Nc1ccc(OCc2ccccc2)cc1)c1ccccc1	.	-1%	-1.2	-10	-2
Cc1nc(SCC(=O)c2ccc(F)c(F)c2)[nH]c(=O)c1Oc1ccc(Cl)cc1	.	-12%	1.0	.	-13
Cc1cc(C(=O)NCc2ccc(S(N)(=O)=O)cc2)c(C)o1	-7	-5%	-1.4	2	0
Cc1cccc(NC(=S)NCc2ccc3c(c2)cc(C)n3C)c1C	.	12%	8.1	-8	4
COc1ccc(CCc2nnc(N)s2)cc1OC	.	.	-2.6	.	8
CCOC(=O)/C(C#N)=C1\C(=O)N(Cc2ccccc2)c2ccccc21	.	-4%	4.1	.	0
CC(=O)Nc1ccc2c3c(cccc13)CC2	-29	-9%	-6.3	.	28
Cc1cc(NC(=S)Nc2ccccc2)ccc1Br	-8	-9%	4.8	7	0
CN(C)c1ccc(/C=C/C(=O)c2ccc(O)cc2)cc1[N+](=O)[O-]	.	14%	-0.5	.	11
CCc1ccc(C(=O)OCC(=O)N(CCOC)c2c(N)n(Cc3ccccc3)c(=O)[nH]c2=O)cc1	.	.	0.0	.	-7
CC(C)NC(C)C(=O)c1ccc2ccccc2c1 (configuration not stated)	.	-7%	0.9	5	-1
O=C(/C=C/c1ccc([N+](=O)[O-])cc1)NCCSCc1ccco1	-12	4%	2.1	1	-1
CCc1cc(C(=O)N2CCCC(Nc3ccc(F)c(F)c3)C2)n(C)n1 (configuration not stated)	.	.	4.0	.	?
COC(=O)N/N=C\c1ccc(OC/C=C/c2ccccc2)c(OC)c1	.	.	-2.0	.	4
O=C(NCc1ccco1)c1cccc2ccccc12	-3	10%	0.4	-4	25
COc1ccccc1N1CCN(CCCCN2C(=O)c3ccccc3C2=O)CC1	.	-8%	0.9	.	-5
CC(CC(=O)N1CCc2ccccc21)n1cccn1 (configuration not stated)	.	.	-0.5	.	-2
CCNC(=O)CSc1nc2cc(S(=O)(=O)Nc3ccc(OC)cc3)ccc2o1	.	.	0.3	.	-1
CCCCC(=O)Nc1sc2c(c1C(N)=O)CCC2	-32	2%	4.4	-2	8
S=c1[nH]ncn1/N=C/c1ccccc1	-19	-5%	0.5	-4	-7
CC1=CC(C)(C)Nc2ccc(OC(=O)c3ccco3)cc21	-46	54µM*	-55	-26	20	Arbovirus anti repeat=-27
N#Cc1ccc(N2CCc3ccccc3C2)c([N+](=O)[O-])c1	-5	2%	-0.5	-8	1
Cc1cccc(NS(=O)(=O)c2ccc(C(=O)NCC(c3ccco3)N(C)C)cc2)c1C (configuration not stated)	.	.	-3.0	.	-1
O=S(=O)(c1ccccc1)N1N=C(c2ccc(O)cc2)CC1c1ccco1 (configuration not stated)	.	.	2.4	.	-7
Cc1ccc(CCSCC(=O)O)cn1	-3	-2%	-1.3	0	8
CCCN1CCC(N2CCN(c3cccc(C(F)(F)F)c3)CC2)CC1	-18	3%	-0.8	-19	?
CC(NC(=O)c1ccccc1NS(C)(=O)=O)c1ccccc1 (configuration not stated)	4	-6%	-0.9	5	-6
O=C(N/N=C/c1cccnc1)C(O)(c1ccccc1)c1ccccc1	-39	-15%	0.9	3	-3
O=S1(=O)CCC(NC2CCCC2)C1 (configuration not stated)	.	.	-1.0	.	7
CCOCCCNC(=O)Cn1cnc2c(cnn2-c2ccc(F)cc2)c1=O	.	.	-0.8	.	0
CS(=O)(=O)Nc1ccc2[nH]c(=O)[nH]c2c1	.	-4%	-7.0	5	-7
CCOC(=O)C(C(=O)c1ccccc1)C1CC(C)NC(=S)N1 (configuration not stated)	-7	3%	-0.9	3	-7
O=C(O)c1ccc(-c2nnn(Cc3cccc(C(F)(F)F)c3)n2)cc1	.	-10%	-3.3	.	-1
CC(C)CCN1C(=O)CCC1(C)C(=O)NC1CCCCCC1 (configuration not stated)	-24	-5%	-0.6	6	-3
Cc1ccc(CNC(=O)c2c(-c3ccccc3)noc2C)cc1	.	.	-1.1	.	1
COc1cccc(-c2cc(CC3(O)CCN(CCCc4ccccc4)CC3)on2)c1	.	.	-0.6	.	93
CC1=C(C(=O)OC(C)C)C(c2ccc(C)o2)C(C(=O)OC(C)C)=C(C)N1	.	-5%	-3.0	.	0
CCOC(=O)C1CCN(C(=O)c2cccc(C(=O)N3CCC(C(=O)OCC)CC3)c2)CC1	-34	-8%	4.8	10	-3
